ALR H2O2 inh – inhibitors of human sulfhydryl oxidase ALR; actives 3.8% (n = 290,000); purified ALR, DTT oxidation, H2O2 HRP-luminol luminescence; inhibition, % (no concentration beside the values); P55789;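 active = mean and each replicate at 75% or more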;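 also: stock transfer was 7.5 nL into about 7.5 µL; 0% = neutral wells and 100% = wells with inactivated enzyme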
Target sequence (P55789 whole entry, looked up): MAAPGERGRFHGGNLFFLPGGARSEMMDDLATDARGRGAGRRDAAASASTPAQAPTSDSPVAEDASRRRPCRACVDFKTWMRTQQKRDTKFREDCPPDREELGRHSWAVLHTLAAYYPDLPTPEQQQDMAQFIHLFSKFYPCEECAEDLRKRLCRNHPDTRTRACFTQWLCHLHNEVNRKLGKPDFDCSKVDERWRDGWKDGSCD
HNF4A DNA FP – change in binding of human HNF4 alpha to DNA; actives 0.3% (n = 360,000); activity change, % at 10 µM; P41235; HNF4a-FITC DNA binding, fluorescence polarization, 1 h; in the data active = activity change above about 30%, passing the limit was not always enough;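 also: controls were the assay level and a saturating level of protein; the project sought stronger binding though the title names inhibitors; some compounds called inactive have numbers as strong as hits; positive values seem to mean higher polarization but the record does not say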
Target sequence (P41235 whole entry, looked up): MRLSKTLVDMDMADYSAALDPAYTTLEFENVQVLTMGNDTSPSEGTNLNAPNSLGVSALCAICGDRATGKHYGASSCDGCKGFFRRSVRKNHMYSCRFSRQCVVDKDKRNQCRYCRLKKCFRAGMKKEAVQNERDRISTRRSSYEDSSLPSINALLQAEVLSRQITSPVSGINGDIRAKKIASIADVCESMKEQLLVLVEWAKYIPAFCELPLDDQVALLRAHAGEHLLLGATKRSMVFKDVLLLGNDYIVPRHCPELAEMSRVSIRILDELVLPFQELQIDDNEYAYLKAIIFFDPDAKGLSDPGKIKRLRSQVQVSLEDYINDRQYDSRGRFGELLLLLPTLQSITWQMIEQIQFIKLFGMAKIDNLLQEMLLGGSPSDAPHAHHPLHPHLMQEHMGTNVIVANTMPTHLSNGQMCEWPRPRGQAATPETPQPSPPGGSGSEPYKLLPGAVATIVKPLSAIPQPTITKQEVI
Ecoli growth – blocks Escherichia coli growth | OD600, 23 h; hits give low values | OD600 absorbance (concentration not given with the values) | actives 0.21% (n = 330,000) | AID 1053175;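 active = OD600 absorbance below the run mean of sample wells minus 3.6 SD, in any replicate, cut at about 0.56 in these data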;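 also: stock transfer was 300 nL into about 60 µL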
Ecoli rRNA inh – inhibits bacterial ribosomal RNA function over humanized ribosomes; actives 1.6% (n = 350,000); GFP signal change (wild-type ribosome), % (test concentration not listed); E. coli WT GFP vs humanized-ribosome RFP mutants, fluorescence, 24 h; hits give low values; DMSO median 0, no signal -100;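 active = significant combined selectivity score with lowered wild-type GFP, culture density cut under 30%, mutant RFP and density less affected; inactive = any of these conditions unmet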; also: one replicate is shown; some compounds called inactive have numbers as strong as hits
Vif TR-FRET – inhibitors of Vif binding to APOBEC3G peptide, primary screen, biochemical, TR-FRET, GST-Vif 1-94, biotin-A3G peptide, dose response retest (AID 1117319) | one-dose inhibition, %; IC50 in µM for titrated hits | TR-FRET GST-Vif / biotin-A3G peptide binding; higher % means a stronger effect; test concentration not given here; strong numbers were not always called active | actives 0.57% (n = 260,000);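 active = above the screen mean plus three standard deviations and confirmed in dose response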;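 also: Vif residues 1-94 fused to GST binding biotinylated APOBEC3G peptide 110-148; 0% = full assay without inhibitor and 100% = GST in place of GST-Vif; retest series ran down from 100 µM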
MLL AF4-AF9 inh – MLL-AF4/AF9 protein interaction inhibition; P42568; AlphaScreen, biotin-AF4 peptide binding to FLAG-AF9; inhibition, % at 10 µM; actives 0.47% (n = 350,000); AID 651704;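 active = every replicate reaching a set inhibition limit, whatever the replicate mean, cut at about 25% in these data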;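 also: 0% = plate neutral control median and 100% = total signal loss; the record names both 10 and 1 µM as test concentration; the first replicate is given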
FGF22 binding – shifts melting point of recombinant human FGF22; recombinant FGF22 thermal shift, SYPRO orange fluorescence; percent of sucrose octasulfate shift, DMSO zero; AID 651658; calls only at 9.99 µM; actives 1.5% (n = 340,000);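 active = melting point raised past a set limit in the mean and every replicate; three in four hits are not shown here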
Target sequence (Q9HCT0 whole entry, looked up): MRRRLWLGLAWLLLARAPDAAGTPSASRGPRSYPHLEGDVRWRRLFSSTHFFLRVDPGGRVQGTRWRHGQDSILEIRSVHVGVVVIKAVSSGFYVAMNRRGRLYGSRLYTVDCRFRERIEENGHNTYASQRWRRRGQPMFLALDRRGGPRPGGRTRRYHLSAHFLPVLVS
Ecoli rRNA inh OD600 – recorded beside Ecoli rRNA inh, whose call it bears; OD600 change, %; measured here: OD600 growth;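 optical density of the mix in the first replicate; 0 = DMSO median and -100 = no signal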
Ecoli rRNA inh RFP – recorded beside Ecoli rRNA inh, whose call it bears; RFP signal change, %; measured here: RFP humanized mutant strains;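 first replicate; 0 = DMSO median and -100 = no signal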
Active calls of the source: *; i = inactive; x = no result given; & = joins results of further samples.

SMILES	ALR H2O2 inh	HNF4A DNA FP	Ecoli growth	Ecoli rRNA inh	Ecoli rRNA inh OD600	Ecoli rRNA inh RFP	Vif TR-FRET	MLL AF4-AF9 inh	FGF22 binding
COc1ccc(C(=O)c2ccc(OC)c(N)c2)cc1N	x	0.3	0.67	x	x	x	17%	x	x
COc1ccc(NC(=O)N(C)C[C@@H]2Oc3ccc(NC(=O)Nc4cccc5ccccc45)cc3C(=O)N([C@@H](C)CO)C[C@H]2C)cc1	x	x	x	3	4	0.6	x	0.5	i
COc1cc(/C=C2\S/C(=N/S(=O)(=O)c3ccc(C)cc3)NC2=O)c([N+](=O)[O-])cc1OC	21	-2.4	0.68	x	x	x	13%	x	x
Nc1[nH]c(N=NC(=O)c2ccc(Cl)cc2)c2ccccc12	-2	-0.2	0.69	x	x	x	x	x	x
COc1cccc(NC(=O)N2C[C@@H](O)COC[C@@H]3O[C@@H](CC(=O)N(C)C)CC[C@H]32)c1	x	x	x	i	x	x	x	-2.7	i
CC(C)(C)[S@@](=O)N1Cc2cc(C(=O)N3CCc4ccccc4C3)nc(-c3cccc(-c4ccncc4)c3)c2[C@H]1CCO	x	x	x	-3	-4	2.9	x	2.8	i
COc1ccc(NC(=O)N(C)C[C@@H]2OCc3cn(nn3)CCCC(=O)N([C@@H](C)CO)C[C@H]2C)cc1	x	-0.7	x	0	2	-0.5	2%	0.3	i
CC1CC1C(=O)Nc1cc(C(F)(F)F)ccc1N1CCOCC1 (centres undefined)	0	0.4	0.69	6	4	3.5	3%	-1.9	i
CC(C)CNC(=O)C1(C)CCCN1C(=O)c1ccc2ccccc2n1 (centres undefined)	x	-2.1	x	3	-1	-0.6	x	-1.9	i
O=C(NCCCC(=O)N1CCOCC1)c1cccnc1	-11	0.7	0.67	x	x	x	-3%	x	x
C/C=C/c1ccc2c(c1)O[C@@H](CN(C)C(=O)c1ccc(F)cc1)[C@@H](C)CN([C@H](C)CO)S2(=O)=O	x	-0.3	x	-11&-8	-8&-16	4.2&2.3	0%	3.8&-0.6&-0.1	i
Cc1cc(C(=O)OCC(=O)N2CCN(C(=O)c3ccco3)CC2)c(C)n1-c1ccc(F)cc1	1	5.1	0.69	x	x	x	1%	x	x
O=C1NN(c2ccccc2)C(=O)/C1=C/c1ccc(-c2ccc(Cl)c(C(=O)O)c2)o1	x	-25	0.69	-1	3	-0.2	-3%	0.9	i
O=C(NCc1n[nH]c(=S)n1-c1ccc(Br)cc1)c1ccc(S(=O)(=O)N2CCOCC2)cc1	25	-4.2	0.69	12	2	0.2	-5%	-2.8	i
COc1ccc(C)cc1N(CC(=O)N1CCCCCC1)S(C)(=O)=O	-16	-0.1	0.64	5	5	-0.2	x	-2.7	i
Cc1ccc2nsnc2c1S(=O)(=O)N(CCO)Cc1cc2cc3c(cc2[nH]c1=O)OCCO3	-6	-7.0	0.68	x	x	x	71%	x	x
CCOC(=O)[C@]12CCC=C1N(Cc1ccc3c(c1)OCO3)C(=O)[C@H](CC(=O)N1CCOCC1)C2	x	1.5	x	17	15	1.8	x	0.9	i
COc1cccc(C(=O)N2C[C@H]3[C@@H](c4ccccc42)[C@@H](CO)N3C(C)=O)c1	x	x	x	6	8	-1.6	x	-2.4	i
C[C@H]1CN([C@@H](C)CO)C(=O)c2ccccc2-c2ccccc2CO[C@H]1CN(C)S(=O)(=O)c1ccc(F)cc1	x	x	x	-1	7	-4.6	x	-3.8	i
CSc1nnc(Cc2cc(=O)[nH]c(=O)[nH]2)n1-c1cccc(C)c1	-5	-2.1	0.71	x	x	x	32%	x	x
CC(O)c1c(OCc2ccccc2)ncnc1OCc1ccccc1 (centres undefined)	-9	1.6	0.68	x	x	x	-2%	x	x
Cc1cccc(NS(=O)(=O)c2ccc(-c3ccc(=O)[nH]n3)o2)c1	3	1.5	0.66	-14	-12	-3.7	-8%	-3.1	i
O=C(c1cc(Cl)ccc1[N+](=O)[O-])N1CCc2ccccc2C1	6	-1.2	0.71	x	x	x	4%	x	x
CC(CC(=O)O)CC(=O)Nc1ccc(S(N)(=O)=O)cc1 (centres undefined)	-6	-0.4	0.72	22	20	-0.2	-10%	x	x
COc1ccccc1NC(=S)N(Cc1ccc(C)cc1)Cc1cccnc1	x	-2.6	0.7	-2	-1	4.1	11%	0.4	i
Cc1ccsc1CN(C)C(=O)c1ccc(Oc2ccccc2)cc1	-5	2.8	0.68	-45	-72	-4.5	x	0.3	i
O/N=C(\c1ccccc1)C(O)c1ccccc1 (centres undefined)	-8	0.4	x	5	4	-0.7	x	2.7	i
CCN(CC)c1nc2c(c(=O)[nH]c(=O)n2C)n1CCCc1ccccc1	6	-1.1	0.71	-8	-11	-2.6	-2%	-1.5	i
NC(CO)(CO)COCc1ccccc1	-1	-0.5	0.72	9	-2	2.7	-2%	0.7	i
Cc1cc(C)c(NC(=O)C2CSCCS2)c(C)c1 (centres undefined)	0	-0.8	0.72	x	x	x	3%	x	x

Laid out differently: 2 of the compounds above
> NC(CO)(CO)COCc1ccccc1
  ALR H2O2 inh: -1; HNF4A DNA FP: -0.5; Ecoli growth: 0.72; Ecoli rRNA inh: 9; Ecoli rRNA inh OD600: -2; Ecoli rRNA inh RFP: 2.7; Vif TR-FRET: -2%; MLL AF4-AF9 inh: 0.7; FGF22 binding: i

> Cc1cc(C)c(NC(=O)C2CSCCS2)c(C)c1 (centres undefined)
  ALR H2O2 inh: 0; HNF4A DNA FP: -0.8; Ecoli growth: 0.72; Ecoli rRNA inh: x; Ecoli rRNA inh OD600: x; Ecoli rRNA inh RFP: x; Vif TR-FRET: 3%; MLL AF4-AF9 inh: x; FGF22 binding: x

Continued:
SMILES	ALR H2O2 inh	HNF4A DNA FP	Ecoli growth	Ecoli rRNA inh	Ecoli rRNA inh OD600	Ecoli rRNA inh RFP	Vif TR-FRET	MLL AF4-AF9 inh	FGF22 binding
Cc1ccc(C=C2C(=O)c3ccccc3C2=O)s1	5	9.1	0.71	x	x	x	10%	x	x
CCCC(=O)Nc1cc(OCC)c(NC(=O)NC2CCCCC2)cc1OCC	-24	-0.8	0.75	-2	5	0.6	1%	5.4	i
COc1ccc(NC(=O)CN(C)C(=O)c2cc3c(s2)CCCCC3)cc1	-6	-1.9	0.71	5	6	8.4	-7%	-0.9	i
Cc1cc(C)cc(N2CC(c3nc4ccccc4n3C)CC2=O)c1 (centres undefined)	-8	-5.4	0.75	3	6	-3.1	2%	-2.5	i
C[C@H]1CN([C@@H](C)CO)C(=O)c2cc(NS(=O)(=O)c3cn(C)cn3)ccc2O[C@@H]1CN(C)S(=O)(=O)c1ccc(F)cc1	x	x	x	3	10	-0.7	x	-0.1	i
COc1ccccc1C1C(C(=O)c2cc3ccccc3o2)=C(O)C(=O)N1c1cc(C)on1 (centres undefined)	11	-5.0	0.7	-4	-2	3.2	x	2.0	i
Brc1ccc(/C=N/Nc2ccc3ccccc3n2)cc1	-1	-3.7	x	x	x	x	-2%	x	x
COc1ccccc1Nc1nc(C2(C)CCC(=O)O2)cs1 (centres undefined)	96*	0.9	0.69	x	x	x	-2%	x	x
O=C(CCN1C(=O)[C@@H]2Cc3ccccc3CN2C1=O)N[C@H](Cc1ccccc1)C(=O)O	x	3.6	0.74	7	7	5.4	x	-2.4	i
CN(CC(=O)Nc1ccc(F)cc1)C(=O)COC(=O)c1cccc(N(C)C)c1	1	-2.4	0.7	3	12	0.1	-13%	-0.5	i

Reformatted bar-delimited: entries from further up
canonical_smiles | ALR H2O2 inh | HNF4A DNA FP | Ecoli growth | Ecoli rRNA inh | Ecoli rRNA inh OD600 | Ecoli rRNA inh RFP | Vif TR-FRET | MLL AF4-AF9 inh | FGF22 binding
Cc1cc(C)cc(N2CC(c3nc4ccccc4n3C)CC2=O)c1 (centres undefined) | -8 | -5.4 | 0.75 | 3 | 6 | -3.1 | 2% | -2.5 | i
C[C@H]1CN([C@@H](C)CO)C(=O)c2cc(NS(=O)(=O)c3cn(C)cn3)ccc2O[C@@H]1CN(C)S(=O)(=O)c1ccc(F)cc1 | x | x | x | 3 | 10 | -0.7 | x | -0.1 | i
COc1ccccc1C1C(C(=O)c2cc3ccccc3o2)=C(O)C(=O)N1c1cc(C)on1 (centres undefined) | 11 | -5.0 | 0.7 | -4 | -2 | 3.2 | x | 2.0 | i
Brc1ccc(/C=N/Nc2ccc3ccccc3n2)cc1 | -1 | -3.7 | x | x | x | x | -2% | x | x

(list continues)
SMILES	ALR H2O2 inh	HNF4A DNA FP	Ecoli growth	Ecoli rRNA inh	Ecoli rRNA inh OD600	Ecoli rRNA inh RFP	Vif TR-FRET	MLL AF4-AF9 inh	FGF22 binding
FC(F)(F)c1ccc2c3n(nc2c1)CCN=C3c1ccc(Cl)cc1	35	3.2	0.65	-11	-6	-2.4	x	6.4	i
COc1ccccc1-c1ccc2c(c1)O[C@@H](CN(C)C(=O)Nc1cccc(F)c1)[C@@H](C)CN([C@H](C)CO)S2(=O)=O	x	x	x	1	4	2.9	x	1.2	i
COc1ccc(/C=N/NC(=O)CNC(=O)c2ccc3c(c2)OCCO3)cc1OC	-4	6.1	x	9	4	4.3	-3%	-1.2	i
Cc1noc(C)c1C(=O)N1CCN(c2ncccn2)CC1	-15	-3.2	0.71	x	x	x	70%	x	x
Cc1cccc(NC(=O)C(C)OC(=O)CNC(=O)C2CCCCC2)c1 (centres undefined)	x	-4.0	x	6	9	1.9	x	-0.9	i
CCCC#Cc1cnc2c(c1)C(=O)N([C@H](C)CO)C[C@H](C)[C@@H](CN(C)C(=O)Nc1cccc(F)c1)O2	x	x	x	-4	-4	5.2	x	0.6	i
N#CCCSCc1ccc2oc(C(=O)O)cc2c1	35	0.5	0.69	22	22	-1.4	7%	-350	i
COCCNC(=O)CSc1nc2ccc(N3CCOCC3)cc2c(=O)n1Cc1ccc(OC)cc1	-13	-3.4	0.65	x	x	x	17%	x	x
C[C@H](CO)N1C[C@H](C)[C@@H](CN(C)S(=O)(=O)c2cccs2)OCc2cnnn2CCCC1=O	x	-8.5	x	7	8	-0.2	-4%	-1.0&-0.1	i
CN(C)c1ccc(NC(=O)C2CCCN(S(=O)(=O)c3ccccc3)C2)cc1 (centres undefined)	100*	-0.6	0.69	-3	4	-6.4	13%	1.9	i
C[C@@H]1CN([C@H](C)CO)S(=O)(=O)c2ccc(-c3ccccc3)cc2O[C@H]1CN(C)C(=O)Cc1ccccc1	x	x	x	-16	-46	12	x	2.1	i
O=C(NCCc1ccccc1F)c1cccc2cccnc12	-7	6.5	0.66	3	-4	0.6	x	4.8	i
CN1CCN(c2nc3c(c(=O)[nH]c(=O)n3C)n2Cc2ccccc2)CC1	-10	-2.4	0.64	5	9	-1.9	2%	-1.4	i
COc1ccc(NC(=O)CSc2nnc(C)n2N)cc1S(=O)(=O)N1CCCCC1	x	4.2	0.65	1	14	-2.2	x	1.6	i
C/C(=N\Nc1ccc([N+](=O)[O-])cc1)c1ccc(-n2nncc2C(C)(C)C)cc1	-12	-16	x	6	2	-0.1	4%	3.7	i
OC[C@H]1Nc2ccc(-c3cccc(F)c3)cc2[C@H]2[C@@H]1CCN2Cc1ccc(F)cc1	x	x	x	-55	-80	-19	x	0.0	i
O=C(CSc1ncccn1)N(Cc1cccnc1)C(CCc1ccccc1)c1nc2ccccc2[nH]1 (centres undefined)	x	2.8	x	-8	-4	8.0	x	-0.5	i
CCC(=O)N1C[C@@H](C)[C@@H](OC)CN(C)C(=O)c2ccc(NC(=O)NC(C)C)cc2OC[C@@H]1C	x	x	x	-2	-5	0.6	x	-1.6	i
COc1cc(/C=N/N(CCO)C2=NS(=O)(=O)c3ccccc32)cc(OC)c1OC	-8	2.7	x	-3	-5	-1.4	0%	-7.5	i
CN(Cc1cn(-c2ccccc2)nc1-c1ccc2c(c1)OCO2)Cc1nccn1C	-11	-2.0	0.7	-58	-80	-19	0%	33*	i
O=C(NCCN1CCOCC1)c1cc2ccccc2[nH]1	-25	-2.7	0.69	x	x	x	31%	x	x

Screening results as filed in PubChem.

These rows are one share of the data; rates above refer to the full screens.
